CBX7 inh = blocks human CBX7 binding to H3K27me3 peptide; AlphaScreen His6-CBX7 / biotin-H3K27me3 peptide binding; active compounds read low; normalised signal (fraction of DMSO) (concentration not given with the values); 66,000 compounds, 1.1% hits; AID 1224903; in the data active = normalised signal below about 0.5;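 also: 100 nL library stock added to about 20 µL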
Target sequence (O95931 whole entry, looked up): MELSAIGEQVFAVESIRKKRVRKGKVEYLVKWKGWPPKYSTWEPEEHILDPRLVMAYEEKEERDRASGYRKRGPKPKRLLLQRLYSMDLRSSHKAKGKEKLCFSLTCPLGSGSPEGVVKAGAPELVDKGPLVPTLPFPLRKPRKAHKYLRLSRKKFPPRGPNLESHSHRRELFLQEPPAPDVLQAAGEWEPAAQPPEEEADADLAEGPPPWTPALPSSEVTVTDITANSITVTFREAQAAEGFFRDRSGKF
CBX7 inh z-score = further read-out of CBX7 inh, marked with its call; z-score; measured here: z-score of CBX7 signal; some inactives read as strong as hits; reference of the scale not given here;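 same signal on another scale; lower means less binding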
Numbers without * were called inactive; & = joins results of further samples. Not all compounds are listed; the hit share may differ from the screen's.

Below each compound: CBX7 inh	CBX7 inh z-score
> COCCCNC(=O)CSc1nc2nc(C)c(Cc3ccccc3C)c(C)n2n1
 : 1.2	1.9
> CCN(CC)S(=O)(=O)c1ccc2c(c1)N(CC(=O)NCc1ccccn1)C(=O)CS2
 : 1	0.29
> O=C(NCc1ccc2c(c1)OCO2)C1CCN(C(=O)c2cnn(-c3ccccc3)c2-n2cccc2)CC1
 : 0.99	-0.014
> CCOC(=O)c1cnc2c(C)c(Cl)ccc2c1Nc1ccccc1C
 : 1.1	0.9
> COc1cc2c(cc1OC)C1C(C(=O)NCC3CCCO3)c3ccccc3C(=O)N1CC2 (stereo not given)
 : 1.1	0.22
> CC1CCC(C(=O)NC(C(=O)NCCc2ccc(S(N)(=O)=O)cc2)C(C)C)CC1 (stereo not given)
 : 1	1.5
> COc1ccccc1OCc1nc(-c2cccnc2)no1
 : 1.1	1.3
> Cc1ncc(CO)c2cc(C(=O)Nc3ccc(Br)cc3F)c(=O)oc12
 : 1.1	2.8
> COCCNC(=O)c1c(-c2ccccc2Cl)noc1C
 : 1	0.027
> CC(=O)Nc1ccc2oc(-c3ccc(F)cc3Cl)nc2c1
 : 1.1	1.4
> Cc1ccc(N2CCN(c3ccc(C)cc3)C(CC(=O)O)C2=O)cc1 (stereo not given)
 : 0.96&1	-1.2&0.037
> COC(CNC(=O)c1cc(Sc2nnc(C)s2)nc2ccccc12)OC
 : 1.1	1.7
> CC(CCc1ccccc1)NC(=O)c1cc(=O)[nH]c2ccc(S(=O)(=O)N3CCCCC3)cc12 (stereo not given)
 : 0.98	-0.24
> COc1ccc(-n2nnc3c(=O)n(CC(=O)N4CCOCC4)cnc32)cc1
 : 1	0.81
> Cc1cccc(-n2c(Cc3cc(=O)[nH]c(=O)[nH]3)nnc2SCC(=O)NC2CCCC2)c1
 : 0.98	-0.85
> O=C(Cc1ccccc1)Nc1cccc(-c2nc3ncccc3o2)c1
 : 0.94	-0.52
> Cc1c(C(=O)Nc2nc3ccccc3s2)sc2ncn(Cc3ccccc3F)c(=O)c12
 : 0.96	-1.6
> Cc1ccc(-c2nc(CS(=O)(=O)CC(=O)N3CCN(c4cccc(C)c4)C(C)C3)c(C)o2)cc1 (stereo not given)
 : 0.56	-0.92
> O=C(CN1CCN(Cc2ccccc2Cl)C1=O)N1CCCCCC1
 : 1.2	2.2
> CCOC(=O)C1CCCN(c2c(N3CCOCC3)c(=O)c2=O)C1 (stereo not given)
 : 0.98	-0.56
> CCOc1ccccc1NS(=O)(=O)c1ccc2c(c1)CCN2C(C)=O
 : 0.79	-0.83
> Cc1ccc(-n2nc(C)c(NS(=O)(=O)c3ccccc3)c2C)cc1C
 : 0.98	-1
> Cc1ccc(NC(=O)CCc2nc(-c3cccs3)no2)c(Br)c1
 : 1.1	2.9
> COc1ccc(OC)c(NC(=O)C(=O)NCc2ccccc2)c1
 : 1	-0.12
> COc1ccc(-c2cc3nc(C)c(CCC(=O)Nc4ccccc4F)c(C)n3n2)c(OC)c1
 : 0.98	-0.32
> Cc1ccccc1Nc1c(-c2cccnc2)nc2cccc(C)n12
 : 0.92	-2
> O=C(Cc1ccc(Cl)cc1)Nc1nc(-c2cccc3ccccc23)cs1
 : 0.97	-0.74
> CCOc1ccc2nc(N3CCCC(C(=O)N4CCN(c5cc(C)ccc5C)CC4)C3)sc2c1 (stereo not given)
 : 0.65	-9.4
> COc1ccccc1Nc1cc(C)nc2ccc(C)cc12
 : 0.98	-0.25
> COc1ccc(-c2noc(CCC(=O)Nc3ccc(C)c(F)c3)n2)cc1
 : 1.1	2.2
> CCC(C)NC(=O)CCC(=O)Nc1ccc2nc(N3CC(C)CC(C)C3)cc(C)c2c1 (stereo not given)
 : 1	0.044
> COc1ccc(C(C)NC(=O)C(=O)NCc2ccccn2)cc1 (stereo not given)
 : 1	0.33
> Cc1ccc(C(=O)Nc2cccc(-c3nc4ncccc4o3)c2)cc1C
 : 1	1.1
> O=C1c2ccccc2C(=O)N1c1cccc(-c2csc(Nc3ccc(Cl)c(Cl)c3)n2)c1
 : 0.91	-1.2
> COc1ccc2nc(C)cc(Nc3ccc(Oc4ccc(Cl)cc4)c(Cl)c3)c2c1
 : 0.66	-7.3
> CCCCNC(=O)c1cc2c(-c3ccc(Cl)cc3)nn(C)c2s1
 : 1.2	0.84
> OC1CSCc2nc3ccccc3n2C1 (stereo not given)
 : 1	0.45
> O=C(CSc1nnc(COc2ccc(Cl)cc2)o1)N1CCOCC1
 : 1.2	1.9
> COc1ccc(NC(=O)C2CCN(S(=O)(=O)c3c(C)noc3/C=C/c3cccs3)CC2)cc1
 : 0.97	-0.41
> Cc1cc2ccccc2c(=O)n1CC(=O)NCC(=O)Nc1ccc(F)c(Cl)c1
 : 1.3	2.9
> CCOC(=O)c1cc(-c2ccc(OC)cc2)n(CCC(=O)N2CCn3c2nc2ccccc23)c1C
 : 1.1	2.9
> Cc1c(C(=O)NCC2CCCO2)oc2ccc(S(=O)(=O)N3CC(C)CC(C)C3)cc12 (stereo not given)
 : 1.1	0.54
> O=C(Cn1ncc2c1-c1ccccc1OC2)N1CCc2ccccc21
 : 1	0.14
> COc1ccc(-c2nc(-c3ccccc3)c(-c3ccc(Oc4ccccc4)cc3)[nH]2)cc1
 : 0.47*	-2.1*
> Nc1nonc1-c1nc2ccccc2n1Cc1nn[nH]n1
 : 0.91	-1.2
> CCCCOc1nnc(-c2ccc(Cl)cc2)c2ccccc12
 : 0.79	-0.84
> CCOC(=O)c1cc(-c2ccccc2)n(CCC(=O)NCc2cccc(OC)c2)c1C
 : 1	0.15
> Cc1cc(C(=O)N2CCN(c3ncccn3)CC2)nn1-c1ccccc1
 : 1	0.34
> O=C1CC(NCCc2ccccc2)C(=O)N1c1ccc(F)cc1 (stereo not given)
 : 0.89	-3.8
> CCc1ccccc1Nc1nc2ccccc2nc1NS(=O)(=O)c1ccc(Br)cc1
 : 0.78	-6.3

Additional compounds follow:
Below each compound: CBX7 inh	CBX7 inh z-score
> COc1ccccc1OCC(=O)Nc1c(C(=O)c2ccc(Br)cc2)oc2ccccc12
 : 1	0.054
> CC1CCCCC1NC(=O)CSCc1cnn(-c2ccccc2)c1-n1cccc1 (stereo not given)
 : 1	-0.097
> Fc1cccc(Nc2c3c(nc4ccccc24)CCC3)c1
 : 1	0.79
> CCCCNc1c(C(=O)OCC)cnc2ccc(OCC)cc12
 : 1.8	9
> CC1(C)CC(=O)c2sc(NS(=O)(=O)c3cc(Cl)ccc3Cl)nc2C1
 : 1	0.47
> Cc1c(Cl)cccc1NC(=O)C(NS(=O)(=O)c1ccc2c(c1)CCC(=O)N2)c1ccccc1 (stereo not given)
 : 1.1	1.7
> COc1ccc(-n2cc(-c3ccc4c(c3)OCO4)[nH]c2=O)cc1
 : 0.96	-0.91
> COc1cccc(-n2cc(-c3ccc4c(c3)OCO4)[nH]c2=O)c1
 : 0.97	-0.8
> CC(C)c1ccc(CN(C(=O)COc2ccc(F)cc2)C2CCS(=O)(=O)C2)cc1 (stereo not given)
 : 0.87	-0.13
> CCN1CCN(Cc2ccc(NC(=O)CC3Oc4ccccc4NC3=O)cc2)CC1 (stereo not given)
 : 1.1	0.42
> Cc1cc(N2CCC(C)CC2)nc2ccc(NC(=O)CCC(=O)NCCC(C)C)cc12
 : 1	2.2
> Cn1c(C(=O)N2CCCC(C(=O)NCCCc3ccccc3)C2)cc2sccc21 (stereo not given)
 : 0.77	-6.7
> CC(C)(Oc1ccc(Cl)cc1)C(=O)Nc1ncccn1
 : 0.64	-16
> O=C1CN(C(=O)c2ccc3c(c2)OCO3)C(c2ccccc2)c2cc(Br)ccc2N1 (stereo not given)
 : 0.97	-0.87
> COc1ccc(-c2cc(C(=O)NC3CCCC3)no2)cc1OC
 : 1.3	2.5
> COc1cc2c(C(=O)N3CCN(c4cccc(Cl)c4)CC3)cn(CC(C)C)c(=O)c2cc1OC
 : 0.87	-3.3
> Fc1ccc(-c2cc(-c3nc(C4CCCCC4)no3)c3ccccc3n2)cc1
 : 1.3	3.9
> Cc1ccc(S(=O)(=O)Nc2ccccc2C(=O)Nc2nc3c(C)cccc3s2)cc1
 : 0.87	-2.1
> Cc1ccc(-c2ccc(=O)n(CCC(=O)N3CC(C)CC(C)C3)n2)cc1 (stereo not given)
 : 0.87	-0.27
> CCCCN(C)S(=O)(=O)c1ccc2c(c1)CCN2C(C)=O
 : 1.1	1.2

The closing 5 compounds of the part above open the next one:
Below each compound: CBX7 inh	CBX7 inh z-score
> COc1cc2c(C(=O)N3CCN(c4cccc(Cl)c4)CC3)cn(CC(C)C)c(=O)c2cc1OC
 : 0.87	-3.3
> Fc1ccc(-c2cc(-c3nc(C4CCCCC4)no3)c3ccccc3n2)cc1
 : 1.3	3.9
> Cc1ccc(S(=O)(=O)Nc2ccccc2C(=O)Nc2nc3c(C)cccc3s2)cc1
 : 0.87	-2.1
> Cc1ccc(-c2ccc(=O)n(CCC(=O)N3CC(C)CC(C)C3)n2)cc1 (stereo not given)
 : 0.87	-0.27
> CCCCN(C)S(=O)(=O)c1ccc2c(c1)CCN2C(C)=O
 : 1.1	1.2
> Cc1ccccc1-c1nc(CN2CCC(C(=O)NC(C)CCc3ccccc3)CC2)c(C)o1 (stereo not given)
 : 0.98	-0.8
> COC(=O)CN1C(C)=Nc2ccc(C)cc2C1c1ccccc1 (stereo not given)
 : 1.1	0.98
> Cc1cc(C)cc(CC2CC(=O)N(c3cc(C)ccc3C)C2=O)c1 (stereo not given)
 : 1	0.31
> CC(=O)c1ccc(N2CCN(C3CC(=O)N(c4ccc(C)cc4)C3=O)CC2)cc1 (stereo not given)
 : 1	0.5
> O=C(Cn1c2c(c(-c3ccccc3)cc1=O)CCCC2)NCc1ccc(Cl)cc1
 : 1	0.59
> Cc1c(NC(=O)c2cc3ccccc3o2)cccc1-c1nc2ccccc2o1
 : 1.1	1.3
> COc1cccc(C(=O)Nc2ccc(-c3nc4cc(C)cc(C)c4o3)cc2)c1
 : 1	0.58
> Cc1ccc(C(C(=O)NC2CCCC2)N2CCCCC2)cc1 (stereo not given)
 : 1	1.1
> Fc1ccc(-c2nnc3ccc(NCc4ccccc4)nn23)cc1
 : 0.95	-1.2
> Cc1ccc(NC(=O)c2cnn(-c3ccc(F)cc3)c2C2CCNCC2)c(C)c1
 : 0.96	-0.83

Ordered by value in CBX7 inh z-score (low to high): 3 from the list above
compound	CBX7 inh z-score
Fc1ccc(-c2nnc3ccc(NCc4ccccc4)nn23)cc1	-1.2
COC(=O)CN1C(C)=Nc2ccc(C)cc2C1c1ccccc1 (stereo not given)	0.98
Cc1c(NC(=O)c2cc3ccccc3o2)cccc1-c1nc2ccccc2o1	1.3

Next section.
Below each compound: CBX7 inh	CBX7 inh z-score
> Cc1cc(=O)n2nc(N3CCCC(C(=O)NC4CCCC(C)C4C)C3)sc2n1 (stereo not given)
 : 0.94	-0.45
> CCOC(=O)c1c(NC(=O)c2cccc(OC)c2)sc(C)c1C
 : 1.5	5.1
> CCc1ccc(NC(=O)c2cc(-c3ccc(Cl)c(Cl)c3)nc3ccccc23)cc1
 : 0.99	-0.022
> CCCOc1ccc(-c2ccc(-c3noc(C4CCCCC4)n3)cc2)cc1
 : 1.1	3.2
> Cc1c(C(=O)NCCc2ccc(Cl)cc2)oc2ccc(S(=O)(=O)N3CCCCCC3)cc12
 : 0.93	-1.3
> O=C(NCc1ccccc1)C(Cc1ccccc1)NS(=O)(=O)c1cccs1 (stereo not given)
 : 1	0.8
> Cc1cc(Nc2cccc(F)c2)n2ncnc2n1
 : 1	-0.13
> Cc1ccc(-c2cc(C(=O)NCc3cn(C)nc3C)c3ccccc3n2)cc1C
 : 1	0.09
> COc1ccc(-c2noc(CN(C)S(=O)(=O)c3ccc(C)cc3)n2)cc1OC
 : 1	0.44
> CNC(=O)COc1ccc(-c2nn(C)c(=O)c3ccccc23)cc1
 : 1	-0.15
> CCC(=O)Nc1ncc2c(n1)CC(c1ccc(C)cc1)CC2=O (stereo not given)
 : 0.81	-1.9
> Cc1cc(NC(=O)c2cc(-c3ccccc3C)nc3ccccc23)no1
 : 1.1	3.1
> O=C(Nc1cccc(-c2nc3ccccc3[nH]2)c1)C(F)(F)F
 : 1.1	2.4
> Cc1cccc(OCc2nc3ccccc3n2Cc2ccccc2)c1
 : 0.75	-4.5
> CC1CCN(S(=O)(=O)c2ccc3c(c2)N(CC(=O)NCc2ccccc2Cl)C(=O)CO3)CC1
 : 1	1.5
> CCOCCCNC(=O)c1ccc2c(c1)N(Cc1c(F)cccc1Cl)C(=O)CS2
 : 1	0.69
> CCc1cc(-c2[nH]ncc2-c2ccc(F)cc2)c(O)cc1OC
 : 0.91	-1.1
> Cc1ccccc1-n1nc2c(c1NC(=O)C(C)Oc1ccccc1)CSC2 (stereo not given)
 : 1	0.64
> CC1c2[nH]c3ccccc3c2CCN1S(C)(=O)=O (stereo not given)
 : 1	0.23
> COc1ccc2c(c1)c(=O)c(S(=O)(=O)c1ccc(F)cc1)cn2CC(=O)Nc1cccc(C)c1
 : 0.96	-0.61
> Cc1cc(C)cc(Nc2cc(C)nc3nnnn23)c1
 : 1	0.071
> O=C(Nc1ccc2oc(-c3ccc(F)cc3)nc2c1)c1ccc(-c2ccc(Cl)cc2)o1
 : 1.1	1.4
> Cn1c(=O)c(=O)n(C)c2cc(S(=O)(=O)Nc3ccc(C(F)(F)F)cc3)ccc21
 : 0.83	-2.6
> CCOC(=O)c1cnc2c(C)cccc2c1NCCc1ccc(OC)c(OC)c1
 : 1.1	0.94
> CC1(C(=O)NC2CCCCCCC2)CCC(=O)N1CCN1CCOCC1 (stereo not given)
 : 1.1	0.55
> COc1ccc(N2CCN(c3ccc4nnc(-c5ccc(F)cc5)n4n3)CC2)cc1
 : 0.71	-4
> Cc1ccc(-n2c(/C=C/c3ccc(OC(F)F)cc3)nc3ccccc3c2=O)cc1C
 : 0.96	-1
> CCN(CC)C(=O)C1CCCN(C(=O)c2cnn(-c3ccccc3)c2-n2cccc2)C1 (stereo not given)
 : 1.1	0.83
> CCOC(=O)N1CCC(Nc2c(NCCCN3CCN(c4ccc(OC)cc4)CC3)c(=O)c2=O)CC1
 : 1	0.72
